Assay outcomes deposited in PubChem BioAssay by National Center for Advancing Translational Sciences (NCATS).
MARV entry inh – blocks Marburg virus binding to or entry into cells. Marburg virus pseudotyped entry inhibition, cell reporter; control for the full effect not named in the record; about a third of the inactives were read at about 46 µM. Potency, µM (series often up to 37.8 µM), for inactives: at the top dose activity change, negative = inhibition, actives largely listed as inhibitors. actives 1.8% (n = 300,000). AID 540276; active = well fitted inhibition curve with a large enough effect; inconclusive = small, poorly fitted or top-dose-only effect, or effect the other way; inactive = flat fitted curve, though single readings scatter; tested in HEK293 cells; about a fifth of its hits are not listed in these tables; further: on the % scale 0 is the no-effect control and ±100 the full control effect; luciferase read-out
2A StopGo – FMDV 2A StopGo reporter, luciferase signal | human cells with a luciferase reporter of 2A StopGo recoding; control for the full effect not named in the record | Potency, µM (top dose mostly 57.9 µM), inactives show at the top dose signal change, negative = less light | actives 1.2% (n = 410,000); active = well fitted falling curve with a large enough effect; inconclusive = small, poorly fitted or top-dose-only effect; inactive = no such curve, though single readings can be large or run the other way; tested in HEK293T cells; further: on the % scale 0 is the no-effect control and ±100 the full control effect; nearly all actives have a fitted effect of over 45% in size; luciferase light after 4 h
Cruzain inh Det – inhibitors of Trypanosoma cruzi cruzain with detergent; P25779; purified cruzain, Z-FR-AMC fluorescence, 0.01% Triton; Potency, µM, for inactives: max response, negative = inhibition, usual class: inhibitors; actives 0.43% (n = 200,000); AID 1478;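 further: plate controls were neutral wells for no effect and buffer without enzyme for full effect; nearly all actives have a fitted effect of over 40% in size; top concentration of the series not given in the record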
Target sequence (P25779 123-467 limits assumed): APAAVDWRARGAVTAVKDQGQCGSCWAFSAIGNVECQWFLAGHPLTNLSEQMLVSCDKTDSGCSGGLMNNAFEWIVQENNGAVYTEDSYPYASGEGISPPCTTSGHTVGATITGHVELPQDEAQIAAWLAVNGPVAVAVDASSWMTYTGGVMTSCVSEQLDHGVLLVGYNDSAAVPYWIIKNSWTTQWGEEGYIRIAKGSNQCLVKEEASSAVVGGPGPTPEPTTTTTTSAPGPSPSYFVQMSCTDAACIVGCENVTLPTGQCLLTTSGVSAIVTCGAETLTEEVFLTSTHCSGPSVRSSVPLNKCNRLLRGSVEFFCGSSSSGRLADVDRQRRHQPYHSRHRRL
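Steps: dispense cruzain (1.5 nM final) in acetate buffer pH 5.5 with DTT and 0.01% Triton X-100; pin-transfer compounds; incubate 15 min RT; add Z-FR-AMC (2 uM final); read fluorescence every 30 s, using the 60 s intensity change.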
NS1 inh – inhibitors of influenza NS1 protein function. S. cerevisiae slowed by influenza A NS1, growth recovery by OD600. actives 0.4% (n = 270,000). Potency, µM (titrated, usually from 46.1 µM), for the others: at the highest dose activity, positive = more growth; active means well fitted rising curve with a large enough effect; inconclusive means small, poorly fitted or top-dose-only effect; inactive means no such curve, though single readings can be large or run the other way; further: nearly all actives have a fitted effect of over 50% in size
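Read-out: OD600 growth recovery of NS1-expressing budding yeast. Cells grown overnight at 30C in -URA glucose medium, washed, resuspended and diluted 1:100 in 2% galactose assay medium, pH 6.0. Same strain lacking NS1 served as positive control.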
LASV entry inh – inhibitors of Lassa virus binding or cell entry | Potency, µM (top dose mostly 37.9 µM), for inactives: at the top dose activity change, negative = inhibition, hits mostly inhibitors | Lassa virus pseudotype entry inhibition, cell reporter; control for the full effect not named in the record | actives 1.2% (n = 300,000); active means well fitted inhibition curve with a large enough effect; inconclusive means small, poorly fitted or top-dose-only effect, or effect the other way; inactive means flat fitted curve, though single readings scatter; tested in HEK293 cells; further: on the % scale 0 is the no-effect control and ±100 the full control effect; nearly all actives have a fitted effect of over 50% in size; luciferase read-out
Cruzain inh noDet – cruzain (T. cruzi) inhibition without detergent | P25779 | purified cruzain, Z-FR-AMC fluorescence, no detergent | Potency, µM, for inactives: max response, negative = inhibition, actives largely listed as inhibitors | actives 2.3% (n = 200,000);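 further: plate controls were enzyme without inhibitor for no effect and buffer without enzyme for full effect; nearly all actives have a fitted effect of over 40% in size; top concentration of the series not given in the record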
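Detergent-free condition (0.00005% Triton X-100) in acetate buffer pH 5.5 with DTT. 1.5 nM enzyme and compound were pre-mixed 15 min, then 2 uM Z-FR-AMC substrate added; reaction progress from fluorescence change between first and third reads (60 s).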
SARS PLP yeast – SARS-CoV PLP inhibition in yeast. S. cerevisiae expressing SARS-CoV PLpro, growth rescue; control for the full effect not named in the record. Potency, µM (series often up to 32.9 µM), for the others: top-dose activity, positive = growth rescue. actives 0.19% (n = 330,000); active means well fitted rising curve with a large enough effect; inconclusive means small, poorly fitted or top-dose-only effect; inactive means no such curve, though single readings can be large or run the other way; further: 0% is about no effect; nearly all actives have a fitted effect of over 55% in size; growth read by luminescence after 48 h
RE007 growth inh – less growth of the S. pombe RE007 Vpr strain; S. pombe RE007 Vpr strain, BacTiter-Glo ATP luminescence, 24 h; control for the full effect not named in the record; Potency, µM (top dose mostly 92.2 µM), for inactives: at the top dose activity change, negative = less growth; actives 0.21% (n = 360,000); AID 651644; active = well fitted falling curve with a large enough effect; inconclusive = small, poorly fitted or top-dose-only effect; inactive = no such curve, though single readings can be large or run the other way;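 further: on the % scale 0 is the no-effect control and ±100 the full control effect; nearly all actives have a fitted effect of over 50% in size; the assay follows cell death caused by Vpr and the record does not say whether a fall means rescue or toxicity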
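Fission yeast strain RE007, carrying one chromosomally integrated HIV-1 vpr copy, was seeded at OD 0.01 in PMG+AL medium with 23 nL pinned compound. After 24 h at 30 °C and 99% humidity, viability was read by BacTiter-Glo luminescence.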
An asterisk follows results filed as active; ? = inconclusive; / = not tested or not shown; & = joins results of further samples; [ ] = dose if it differs, or a comment. Unless noted, the call rests on the fitted dose curve; in most records, active means well fitted curve in the direction sought with a large enough effect; inconclusive means small, poorly fitted or top-dose-only effect, or another doubt; inactive means no such curve, though single readings can be large; an effect the other way counts as inactive or inconclusive. Potency means the concentration at half of the fitted maximal effect. Not a hit list; overall some 4.5% were active at least once.

SMILES	MARV entry inh	2A StopGo	Cruzain inh Det	NS1 inh	LASV entry inh	Cruzain inh noDet	SARS PLP yeast	RE007 growth inh
Cc1ccc2c(c1)c1c3n2CC(=C2C(=O)OC(C)(C)OC2=O)NC3CCC1 (stereo not drawn)	-28.8%	/	-8.2%	-59.0%	-21.9%	19.6%	-1.3%	0.5%
CCOC(=O)c1[nH]c2ccc(Cl)cc2c1-c1ccccc1	-12.9%	0.5%	-7.5%	-26.7%	-23.8%	-16.6%	1.7%	1.8%
Cn1c(=O)[nH]c(NC2CCCCC2)c(N=O)c1=O	-3.0%	-1.1%	-2.9%	4.0%	-2.4%	19.4%	6.4%	12.9%
CN(C)c1cccc(O)c1	/	7.8%	10.3%	/	/	0.6%	-7.6%	0.2%
C=CCOc1c(CNc2nccs2)cccc1OCC	12.1%	-29.6%	-11.9%	-5.1%	2.4%	-7.8%	-10.6%	-14.0%
COCCCNC(=S)NCCCNc1nc2cc(C)cc(C)c2cc1C#N	?	-8.0%	/	0.2%	?	/	-1.2%	1.4%
COc1ccc(S(=O)(=O)N(C)c2ccc(OCC(=O)Nc3cc(C)on3)cc2)cc1	1.4%	52.9%[activator]	-1.2%	-29.4%	-5.4%	-7.0%	4.5%	14.1%
CCN(CC)CCCN1C(=O)c2oc3ccccc3c(=O)c2C1c1cccs1 (stereo not drawn)	1.6%	/	-1.7%	-11.3%	/	-0.7%	-4.5%	/
Cc1ccccc1CN(C)CC(=O)NC(C)CCc1ccccc1 (stereo not drawn)	-0.4%[46.1 µM]	-24.3%	/	/	-16.6%	/	-0.9%	-15.8%
CCC1CCC(C)N(N=O)C1 (stereo not drawn)	3.6%	-9.3%	/	/	2.7%	/	/	3.1%
O=C(NN1CCOCC1)c1cn(-c2ccccc2)nc1-c1cccs1	/	7.3%	/	-7.9%	/	/	-5.2%	7.5%
CCC(c1nnnn1C1CCCC1)N1CCN(c2cccc(OC)c2)CC1 (stereo not drawn)	?	-27.4%	/	-0.3%	4.8%	/	0.3%	-5.7%
CCN1CCN(C(=O)c2ccc3c(c2)N(Cc2ccccc2)C(=O)c2ccccc2S3(=O)=O)CC1	-1.6%[46.1 µM]	0.0%&6.6%	3.7%	-8.3%	5.9%[46.1 µM]	-1.7%	-0.4%	-7.0%
CC(C)Oc1ccc(-c2nn(-c3ccccc3)cc2/C=c2\sc3ncnn3c2=O)cc1	/	/	3.4%	4.9%	/	?	-3.6%	/
Cc1c(CC(Cl)(Cl)Cl)c2c(n1O)CC(C)(C)CC2=O	-29.7%	-18.4%	-2.7%	-34.9%	-1.4%	-1.8%	-44.2%	1.4%
CCC[N+]12CCC(CC1)C(=C(c1ccccc1)c1ccccc1)C2	-4.3%	-9.5%	-3.1%	-6.7%	-0.6%	1.2%	0.2%	-13.8%
N#Cc1ccccc1CSCCNC(=O)Cc1c(F)cccc1Cl	-12.0%[46.1 µM]	4.2%	/	-10.0%	25.7%[46.1 µM]	/	1.5%	-2.2%
O=C(Oc1cccc(-c2cnc3ccccc3n2)c1)c1ccco1	?	4.0%	-9.2%	-4.2%	-26.0%	-1.9%	-2.4%	-9.0%
COC(=O)c1ccc(OCC2c3cc(OC)c(OC)cc3CCN2C(=O)c2ccc(OC)cc2)cc1 (stereo not drawn)	/	-16.1%	0.3%	/	-29.9%[46.1 µM]	?	/	/
O=S(=O)(Nc1ccc2nc(-c3ccc(Br)o3)[nH]c2c1)c1ccccc1	/	/	-4.0%	-0.9%	/	-0.8%	4.2%	/
O=S(=O)(c1cccc(C(F)(F)F)c1)N(CCCN1CCOCC1)Cc1cccs1	1.7%	-7.7%&18.5%	-0.3%	-0.5%	-17.4%&0.8%	22.4%	-7.0%&-4.2%	0.5%&-14.1%
CCOC(=O)c1c(-c2cccc([N+](=O)[O-])c2)csc1NC(=O)C1CCCCC1	?	-24.6%	-6.4%	-7.0%	?	-2.7%	-22.6%	18.3%
COc1ccc(C(=O)NC(C(=O)N2CCN(c3ccccc3O)CC2)C(C)C)cc1 (stereo not drawn)	9.2%[46.1 µM]	-17.0%	/	-0.8%	3.9%	/	11.6%	0.7%
O=C(COc1ccc(Cl)cc1Cl)Nc1ccccc1NS(=O)(=O)c1cccs1	?	30.9%[activator]	/	6.7%	-0.4%[46.1 µM]	/	-0.1%	-6.9%
COc1ccc(NC(=O)C2CCCN(c3cnccn3)C2)cc1 (stereo not drawn)	/	10.7%	/	-8.3%	/	/	-2.4%	3.9%
CC(=O)N1CCN(c2ccc(NC(=O)c3ccc([N+](=O)[O-])o3)cc2Cl)CC1	?	29.7%	/	-14.7%	?	/	-16.7%	-14.3%
Cn1c(=O)c2c(nc(N3CCN(c4ccccc4)CC3)n2CCCc2ccccc2)n(C)c1=O	-14.7%&-14.7%	-24.0%	-7.9%	-73.4%	?	?	-2.5%	5.9%
COc1ccccc1-c1nc2ccccc2nc1-c1ccccc1	?	0.0%	-9.7%	-17.5%	?	2.8%	-46.9%	-8.8%
CC(C)N1CCC(N2CCN(Cc3cc4c(cc3Cl)OCO4)CC2CCO)CC1 (stereo not drawn)	?	-0.1%	/	5.7%	-0.3%	/	-0.8%	1.2%
C=C(C)Cn1c(C)cc(C)c(S(=O)(=O)c2ccc(C)cc2)c1=O	-26.9%[46.1 µM]	7.9%	/	-8.2%	4.3%[46.1 µM]	/	-2.1%	6.8%
Cc1nc2ccccc2n1CC(=O)N/N=C/c1cccnc1	/	-9.7%	/	1.2%	/	/	-0.4%	-2.4%
COc1cc(CNC(C)C)c(Br)cc1OC1CCCC1	?	3.1%	/	0.7%	-18.2%	/	-1.7%	1.1%
O=C(Cn1c(=O)oc2cc(S(=O)(=O)N3CCCC3)ccc21)Nc1cccc(C(F)(F)F)c1	?	?	-3.8%	-4.2%	?	?	-0.6%	4.1%
Cc1ccc(NC(=O)/C=C/c2ccc([N+](=O)[O-])s2)c(C)c1	?	12.6µM*	-0.9%	-6.7%	?	?	-0.6%	?
CCC(CC)NC(=O)c1cccc(NC(=O)C(C)C)c1	?	11.5%	-1.1%	9.6%	3.0%	6.6%	5.6%	9.6%
CCCn1c(=N)n(CC(=O)OCC)c2ccccc21	-0.9%	-7.3%	1.1%	-2.6%	1.9%	3.7%	4.8%	11.8%
Nc1nonc1C(=O)OCC(=O)N1CCOCC1	0.1%	9.1%	1.0%	4.1%	-2.0%	8.5%	3.8%	0.9%
Cc1cc(=O)oc2cc(NS(=O)(=O)c3ccc(F)cc3)ccc12	?	7.7%	/	1.4%	9.5%	/	0.6%	3.1%
COC(=O)c1sccc1NC(=O)C1CC=CCC1C(=O)O (stereo not drawn)	-3.4%	11.0%	2.8%	0.3%	8.9%	8.6%	-2.1%	2.3%
COc1ccc(C2CC(c3cccs3)=NN2c2ccccc2)cc1 (stereo not drawn)	5.5%	2.5%	/	3.6%	16.7%	/	-2.2%	-1.7%
COc1ccc(C(=O)Nc2cc3c4c(c2)C(C)C(=O)N4CCC3)cc1 (stereo not drawn)	-5.0%	32.5%[activator]	/	/	-0.7%	/	0.8%	-13.2%
COc1cc(/C=N/NC(=S)Nc2cccc(S(=O)(=O)N(C)C)c2)cc(OC)c1O	19.5%	-14.0%	-13.5%	11.6%	-0.6%	2.1%	10.9%	7.9%
CN1CCc2c(sc(NC(=O)CS(=O)(=O)c3ccc(F)cc3)c2C(N)=O)C1	?	18.3%	/	/	-1.3%	/	-8.6%	19.2%
COc1cc(OC)c(OC)cc1/C=C/c1nc2cc3ccccc3cc2c(=O)n1-c1ccc(Cl)cc1	/	-25.7%	0.6%	/	14.6%[46.1 µM]	-13.8%	/	/
O=C(O)c1nn(-c2cccc(Cl)c2)c(=O)cc1O	-3.1%[46.1 µM]	-7.9%	/	-0.8%	18.3%[46.1 µM]	/	-0.7%	2.0%
CCCCCOc1ccc(Cn2c(=O)oc3ccc(C)cc32)cc1OC	?	-23.3%	-8.8%	/	-11.3%[46.1 µM]	11.0%	/	/
CC(NC(=O)COC(=O)c1ccc2ccccc2n1)C1CC2CCC1C2 (stereo not drawn)	10.3%[46.1 µM]	-15.7%	/	/	?	/	-4.2%	7.2%
Cn1cc(CC(=O)NC2CCCCC2)c2ccccc21	-1.8%	3.5%	/	/	18.3%	/	0.8%	5.0%
O=C(Nc1ccc(F)cc1)c1ccc(-n2ccnc2)nc1	16.8%	4.3%	1.4%	22.6%	2.2%	5.4%	-5.5%	5.4%
O=C(CNC(=O)c1ccc(Br)cc1)N=Nc1c(O)[nH]c2ccc([N+](=O)[O-])cc12	29.2%[46.1 µM]	7.8%	/	6.1%	1.3%[46.1 µM]	/	-0.3%	2.0%
O=C(CC1NCCNC1=O)Nc1ccc2c(c1)OCO2 (stereo not drawn)	17.5%	0.8%	0.7%	1.12µM*	11.0%	-3.4%	6.5%	5.1%
COc1cc(C(=O)Nc2scc(-c3ccc(Br)cc3)c2C(=O)O)cc(OC)c1OC	/	-28.5%	/	15.4%	/	/	1.8%	6.0%
Cc1ccc(S(=O)(=O)NC2CCCCC2)c2nsnc12	?	39.6%[activator]	-6.0%	-11.7%	2.3%	8.7%	9.5%	5.0%
CCOc1ccc(C(=O)N/N=C/c2cccc3cccnc23)cc1	?	3.7%	-9.0%	-222.6%	?	1.1%	2.4%	-21.2%
CC1CCN(S(=O)C23CC4CC(CC(C4)C2)C3)CC1 (stereo not drawn)	-0.2%[46.1 µM]	-12.9%	/	-3.6%	-17.9%	/	0.4%	8.6%
CCOc1ccccc1NC(=O)c1cc(=O)c2ccccc2o1	/	-14.7%	/	1.8%	/	/	-7.2%	-9.2%
Cc1ccc(COc2cccc3cc(-c4noc(-c5ccc(C)cc5)n4)c(=O)oc23)cc1	?	-5.6%	-3.6%	/	13.4%[46.1 µM]	-6.8%	/	/
